# Biofilm kill mix – mixture kills Candida albicans biofilm cells; C. albicans biofilm persisters + clotrimazole, fluorescence viability; primary screen in compound mixtures of four per well; inhibition, % at 7.6 µM; 120,000 tested, 0.02% active; AID 1242;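 active means inhibition above 30.3% in the primary screen of four-compound pools, then above 30% when the compound was retested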;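 further: compounds exposed to preformed 24 h biofilms for 48 h; the number belongs to the whole pool; some results filed as inactive read as strong as hits; inactives centre near 12; 0% = biofilm with clotrimazole alone and 100% = kill control; retested singly at about 60 µM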
#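 Assay system: C. albicans biofilms / Medium: RPMI/MOPS medium, pH 7.0 / Schedule: biofilm formation 24 h, compound exposure 48 h, 37 °C / Measured by: Alamar Blue fluorescence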
# Active calls of the source: *. Only part of the results is shown (hit frequency here may not be typical).
# The first two records, to show the layout:
SMILES,Biofilm kill mix
O=C(CCS(=O)(=O)c1ccccc1)Nc1cccc2c1C(=O)NC2=O,3
O=C(COC(=O)Cc1ccc(-c2ccccc2)cc1)NCc1ccccc1,7

# The whole of this part, from the start:
SMILES,Biofilm kill mix
O=C(CCS(=O)(=O)c1ccccc1)Nc1cccc2c1C(=O)NC2=O,3
O=C(COC(=O)Cc1ccc(-c2ccccc2)cc1)NCc1ccccc1,7
CN(c1ccccc1)c1cc(=O)[nH]c(=O)[nH]1,9
CCOC(=O)CC1C(=O)NCCN1Cc1ccc(OC)c(OC)c1 (stereo unspecified),8
Fc1ccc(N2CCN(C(=S)NCC3CCCO3)CC2)cc1 (stereo unspecified),7
Cc1cc2c(cc1C)NC(c1cccnc1)C1=C(CC(C)(C)CC1=O)N2 (stereo unspecified),14
CCOC(=O)CNC(=O)/C=C/c1ccc2c(c1)OCO2,3
CSc1ncccc1C(=O)OCc1cccc([N+](=O)[O-])c1,7
CC(=O)c1cccc(NC(=O)C(NC(C)C)c2ccccc2)c1 (stereo unspecified),1
Cc1cc(=O)n2[nH]nnc2n1,13
COc1ccc(C(=O)O/N=C(/c2ccccc2)c2ccncc2)cc1OC,3
COc1cccc(/C=C(\C(=O)O)c2ccccc2)c1,10
CN(C)CC(C)(C)CNS(=O)(=O)c1ccc(OC(F)(F)F)cc1,7
Cc1ccccc1Nc1nc2ccccc2s1,16
Cc1cc(Br)c(NC(=O)COC(=O)C2CC2C)c(Br)c1 (stereo unspecified),16
Cc1ccc(CC2S/C(=N/N=C/c3ccco3)NC2=O)cc1 (stereo unspecified),16
CC(C)N(C(=O)Cn1c(SCC(=O)Nc2nccs2)nc2ccccc21)C(C)C,5
CC(C)(CO)CNC(=O)CCc1nnc(CCCc2ccccc2)o1,-12
CCOC(=O)Cc1csc(NC(=O)c2cc3ccccc3o2)n1,6
CC(=O)Nc1ccc(S(=O)(=O)NC(CC(=O)O)c2ccc(C)cc2)cc1 (stereo unspecified),28
CCC(=O)c1c[nH]c(C(=O)NCc2cccnc2)c1,10
Cn1nc(C(F)(F)F)cc1C(=O)Nc1ccc(Cl)cc1,8
CCOC(=O)C1CCCN(Cc2ccc3c(c2)OCO3)C1 (stereo unspecified),7
CCOC(=O)Cc1ncccc1C(=O)Nc1ccc(OC)cc1,18
O=C(NNc1nc2ccccc2s1)Nc1ccccc1,17
CCN(CC)S(=O)(=O)c1ccc(-n2c(=O)c(C(C)C)c(C)n2C)cc1,22
O=C(c1ccccn1)N1N=C2/C(=C/c3ccc(F)cc3)CCCC2C1c1ccc(F)cc1 (stereo unspecified),22
CCOC(=O)C1=C(CP(=O)(c2ccccc2)c2ccccc2)NC(=O)NC1c1ccc(Cl)cc1 (stereo unspecified),11
CCN(C(=O)COC(=O)c1cccc(-n2cnnn2)c1)C1CCCCC1,4
CC(C)=NNc1cc([N+](=O)[O-])cc2c1C(=O)N(C)S2=O (stereo unspecified),9
CC(=O)Nc1sc2c(c1CN1CCN(c3ccccn3)CC1)CCCC2,7
COc1cc(NC(=O)c2cccc(C)c2)c(OC)cc1NC(=O)CN1CCCCC1,21
Cc1ccc(Nc2ccc(S(=O)(=O)N3CCOCC3)cc2[N+](=O)[O-])c(C)c1,4
COC(=O)CN1C(=O)Nc2ccc(Br)cc2C1c1ccccc1 (stereo unspecified),10
O=C(OCC(=O)N1CCCC1=O)C1COc2ccccc2O1 (stereo unspecified),18
O=C1ON=C(c2ccccc2)/C1=C/c1ccc(OS(=O)(=O)c2ccccc2)cc1,2
COCc1nc2ccccc2n1Cc1c(F)cccc1Cl,23
COc1ccc(C(=O)NCC(=O)OCc2ccc(Br)cc2)cc1,10
Cc1cccc2cc(CN(CC3CCCO3)C(=S)NCc3ccco3)c(=O)[nH]c12 (stereo unspecified),8
COc1ccccc1NC(=O)N1CCCC1,5
CCO[C@H]1OC(C(=O)NC2CC2)=C[C@@H](C2CCCCC2)[C@@H]1CCCO,13
Cc1cccc(OCCNC(=S)NC(=O)c2cccnc2)c1,1
COc1ccc(-n2c(=O)c(CCC(=O)N(C)Cc3ccccc3C)nc3ccccc32)cc1,-7
Cc1cc(=O)[nH]c(N)n1,15
O=C(CNC(=O)c1ccc2ccccc2c1)OCC(=O)N1CCN(S(=O)(=O)c2ccc3ccccc3c2)CC1,10
CC[N+](CC)(CC#Cc1ccccc1)CC(=O)c1ccc(Cl)cc1,6
Cc1ccc(OCC(=O)O/N=C(\N)c2ccccn2)cc1C,31
Cc1c(C(=O)c2cccc(F)c2)c2ccccn2c1CCC#N,-1
O=C(NCc1ccccn1)c1nnc(Cc2ccc(Cl)cc2)o1,18
CCN(CC)c1ccc(/C=N/NC(=S)NCc2ccco2)cc1,3

# The listing continues:
SMILES,Biofilm kill mix
CN(c1ccccc1)S(=O)(=O)c1cccc(C(=O)NNC(=O)c2ccccc2)c1,16
CN(Cc1ccccc1)C(=O)c1nc2ccccn2c1CN1CCC(N2CCOCC2)CC1,26
CC(=O)c1ccc(NC(=S)Nc2ccc3[nH]c(=O)[nH]c3c2)cc1,5
Cc1ccc(C)c(C(=O)COC(=O)c2cccc(N3C(=O)c4c(C)nc5ccccc5c4C3=O)c2)c1,10
O=C(/C=C/c1ccc([N+](=O)[O-])cc1)c1cccs1,16
CCOC(=O)C1CCCN(C(=S)NC2CCCC2)C1 (stereo unspecified),9
Cc1cc(NC(=O)CSc2nncc(=O)n2N)no1,11
C/C(CC(=O)NC(C)C)=N\NC(=O)COc1cc(C)c(Br)cc1Br,22
CCC(C)NCCOc1cccc(Br)c1 (stereo unspecified),12
O=c1[nH]nc(-c2ccc(F)cc2)cc1Cc1ccccn1,9

# A draw from above in order of count of non-hydrogen atoms, highest first.
SMILES,Biofilm kill mix
CN(c1ccccc1)S(=O)(=O)c1cccc(C(=O)NNC(=O)c2ccccc2)c1,16
C/C(CC(=O)NC(C)C)=N\NC(=O)COc1cc(C)c(Br)cc1Br,22
CC(=O)c1ccc(NC(=S)Nc2ccc3[nH]c(=O)[nH]c3c2)cc1,5
O=c1[nH]nc(-c2ccc(F)cc2)cc1Cc1ccccn1,9
CCOC(=O)C1CCCN(C(=S)NC2CCCC2)C1 (stereo unspecified),9

# (further entries)
SMILES,Biofilm kill mix
S=c1[nH]c(-c2ccc(Br)cc2)cn1CCc1ccccc1,10
Cc1cc(C)n2nc(SCc3nnc(-c4cccs4)o3)nc2n1,14
COc1cccc(NC(=S)/C(=C(\[O-])c2cc(C)n(-c3ccccc3F)c2C)[n+]2ccc(N(C)C)cc2)c1,-3
O=C1NC(=O)C2(COC(c3ccncc3)OC2)S1 (stereo unspecified),6
Cc1ccccc1NC(=O)c1cn(-c2ccccc2)nc1-c1ccccc1,13
O=C(CSc1nnc(Cc2cc(=O)[nH]c(=O)[nH]2)n1-c1ccc(Cl)cc1)N1CCc2ccccc21,13
CCN(CC)C(=S)SCC(=O)c1c(C)[nH]c2ccccc12,11
COc1ccccc1CP(=O)(c1ccccc1)c1ccccc1,8
CCOC(=O)N1CCN(c2c(NCc3ccc(F)cc3)c(=O)c2=O)CC1,21
Brc1c(CSc2nncc3ccccc23)nc2ccccn12,15
CS(=O)(=O)NN1C(=O)c2ccccc2NC1c1cccs1 (stereo unspecified),8
O=C(Cc1ccc(Br)cc1)Nc1cccc(-c2cn3c(n2)SCC3)c1,15
CC(C)Oc1ccc(C(=O)NC(=S)Nc2ccc(CN3CCOCC3)cc2)cc1,5
COC(=O)c1c(NC(=O)/C=C/C(=O)O)sc(C)c1-c1ccc(C)c(C)c1,6
COC(=O)c1c(NC(=O)CSc2ncnc3c2cnn3-c2ccccc2Cl)sc2c1CCCC2,6
COC(=O)c1nn(-c2ccc(OC)cc2)c(=O)cc1O,15
O=C(Nc1cccc(S(=O)(=O)Nc2ccc(Cl)cc2)c1)c1cc2c(s1)CCCC2,12
CC1(C)CC(=O)C(N=Nc2cccc([N+](=O)[O-])c2)=C(O)C1,15
COc1cccc(C2CC(c3ccccc3)=NN2S(=O)(=O)c2ccc(C)cc2)c1OC (stereo unspecified),7
CCC(CC)C(=O)Nc1cccc(C(=O)Nc2ccc(S(N)(=O)=O)cc2)c1,9

# Reprinted at random: 5 entries already listed.
SMILES,Biofilm kill mix
O=C(Cc1ccc(Br)cc1)Nc1cccc(-c2cn3c(n2)SCC3)c1,15
COc1cccc(C2CC(c3ccccc3)=NN2S(=O)(=O)c2ccc(C)cc2)c1OC (stereo unspecified),7
CS(=O)(=O)NN1C(=O)c2ccccc2NC1c1cccs1 (stereo unspecified),8
CCC(CC)C(=O)Nc1cccc(C(=O)Nc2ccc(S(N)(=O)=O)cc2)c1,9
COC(=O)c1nn(-c2ccc(OC)cc2)c(=O)cc1O,15

# Next part:
SMILES,Biofilm kill mix
CCC(=O)c1ccc(OC(C)C(=O)NC2(C#N)CCCCC2)cc1 (stereo unspecified),-2
O=C1C=C(Nc2ccc(Cl)cc2)C(=O)N1c1ccc(Cl)cc1,16
Cc1cc(C)c2c(c1)NC(c1cc3c(cc1Br)OCO3)C1CC=CC21 (stereo unspecified),15
COc1ccc(C(=O)Nc2ccc3nc4n(c(=O)c3c2)CCCC4)cc1[N+](=O)[O-],9
CCc1ccccc1NC(=O)CCCSc1nc2ccccc2s1,4
CN1CCN(S(=O)(=O)c2cccc(C(=O)N3CCc4ccccc43)c2)CC1,-18
COc1ccc(S(=O)(=O)N2CCOCC2)cc1NC(=O)CSc1cccc[n+]1[O-],13
CCCNCC1C(Oc2ccc(Cl)cc2)C(=O)N1c1ccccc1C (stereo unspecified),12
O=C(NCCOc1ccccc1F)Nc1ccc(Br)cc1,10
Cc1c(CCO)c(=O)oc2n[nH]c(-c3ccccc3)c12,11
COc1ccc(N2C(=O)CC(Sc3ccccc3C(=O)O)C2=O)c([N+](=O)[O-])c1 (stereo unspecified),3
Cn1ncc(Oc2ccc([N+](=O)[O-])cc2)c(Cl)c1=O,23
CCOC(=O)c1ccc(-n2ccnc2)c(NC(=O)c2ccc(C(C)(C)C)cc2)c1,0
COCCn1c(C)cc(C(=O)CSc2cc(C)c3ccccc3n2)c1C,17
CSc1ccc(/C=C/C(=O)OCC(=O)N(C)CCC#N)cc1,25
O=C1c2cccc3c(N4CCCCC4)ccc(c23)C(=O)N1c1cccc(O)c1,17
CCOc1ccc(-n2c(=O)[nH]cc(C(=O)Nc3ccc(OC)c(OC)c3)c2=O)cc1,5
CCOC(=O)N1CCN(S(=O)(=O)c2ccc(C(=O)Nc3ccc4c(c3)C(=O)NC4=O)cc2)CC1,11
Cc1ccc(NC(=O)Cn2c(=S)[nH]c3ccccc32)cc1,13
COc1ccc(-c2nc(-c3ccccn3)no2)cc1,23
CC(C)C1NC(=S)N(C2CCCCC2)C1=O (stereo unspecified),11
Cc1ccc(OCCCC(=O)Nc2nnc(C3CCCO3)s2)c(C)c1 (stereo unspecified),25
S=C1COC(c2ccccc2)N1c1ccccc1 (stereo unspecified),10
CCC(c1nc2ccccc2c(=O)n1-c1nc2ccccc2s1)N1C(=O)c2ccccc2C1=O (stereo unspecified),15
CCOC(=O)c1cc(-c2csc(-c3ccc(C(C)(C)C)cc3)n2)on1,9
COc1ccc(-c2cn(-c3ccc(C)cc3C)c(=O)[nH]2)cc1OC,4
Cc1ccc(CN2CCN(/N=C/c3ccc(C(=O)O)cc3)CC2)cc1,10
COc1cc(OC)cc(-n2nnnc2SCC(=O)NCCc2ccc(OC)c(OC)c2)c1,10
Cc1ccc(C(=O)c2ccc(C)cc2)cc1,11
C=C(C)C1CC=C(C)/C(=N/NC(=O)COc2cccc3ccccc23)C1 (stereo unspecified),6
COC(=O)C1=C(C)Nc2[nH]c(=S)[nH]c(=O)c2C1c1ccc(OC)cc1 (stereo unspecified),12
COc1ccc(-c2ccnc(SCC(=O)c3ccc(OC)c(OC)c3)n2)cc1,-10
O=C(COc1ncnc2ccccc12)NCCc1ccc(F)cc1,0
CCc1cccc(NC(=O)Nc2ccc3c(c2)OCO3)c1,8
CCC(=O)Nc1ccccc1C(=O)OC(c1ccccc1)c1ccccc1,-1
O=C(O)CCCCCn1c(SCc2cc(=O)n3ccccc3n2)nc2ccsc2c1=O,-2
CCCCn1nnnc1NCc1cc(Cl)c(OC)c(OC)c1,16
CCOC(=O)C1=C(C)Nc2nc(C)nn2C1c1cc(OC)ccc1OC (stereo unspecified),2
Cc1onc(-c2ccccc2Cl)c1C(=O)Nc1sc2c(c1C(N)=O)CCC(C)C2 (stereo unspecified),6
CC1CCN(c2c(NCC3CCC(C(=O)NCc4ccc(F)cc4)CC3)c(=O)c2=O)CC1 (stereo unspecified),14
O=C(COC(=O)CCOc1ccccc1)NCCC1=CCCCC1,14
O=C(CN1C(=O)S/C(=C\c2ccc(F)cc2)C1=O)Nc1cccc(S(=O)(=O)NCc2ccco2)c1,9
CCc1oc(C(=O)OC)cc1CSC(=N)N,11
O=C(CSc1nc(-c2cccs2)cc(C(F)(F)F)n1)NCCCN1CCOCC1,4
O=C(O)c1[nH]c2ccc(Cl)cc2c1CCN1C(=O)c2ccccc2C1=O,15
O=C(Nc1nc2ccsc2c(=O)s1)c1ccco1,19
N/C(=N\OS(=O)(=O)c1ccccc1)c1ccccn1,13
CN(C)c1ccc(P(=O)(OC2CCCCC2)C(Nc2ccccc2)c2cccnc2)cc1 (stereo unspecified),28
Cc1nnsc1C(=O)NC(=O)Nc1ccc(F)c(Cl)c1,14
